# From PubChem BioAssay
# VDR inh – Inhibitors of the vitamin D receptor (VDR): qHTS | Vitamin D3 receptor (Homo sapiens), P11473 | VDR-SRC2-3 peptide fluorescence polarization, 2 h | Potency, µM, inactives show max response, negative = inhibition, most hits filed as inhibitors | 400,000 tested, 0.93% active; active means well fitted inhibition curve with a large enough effect; inconclusive means small, poorly fitted or top-dose-only effect, or another doubt; inactive means no such curve, though single readings can be large or run the other way; further: series mostly up to about 120 µM
# Target sequence (P11473 whole entry, looked up): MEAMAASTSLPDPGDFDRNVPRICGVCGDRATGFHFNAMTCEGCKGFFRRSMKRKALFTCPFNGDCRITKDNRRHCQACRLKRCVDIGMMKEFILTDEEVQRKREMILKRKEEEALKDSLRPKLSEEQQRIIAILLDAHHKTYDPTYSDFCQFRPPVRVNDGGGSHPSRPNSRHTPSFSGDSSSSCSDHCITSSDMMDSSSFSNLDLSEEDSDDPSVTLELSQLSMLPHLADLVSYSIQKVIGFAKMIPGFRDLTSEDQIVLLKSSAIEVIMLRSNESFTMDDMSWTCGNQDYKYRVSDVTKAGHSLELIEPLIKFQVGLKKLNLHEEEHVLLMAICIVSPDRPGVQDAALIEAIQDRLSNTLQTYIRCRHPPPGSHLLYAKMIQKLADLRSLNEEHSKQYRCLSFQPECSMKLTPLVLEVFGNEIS
#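 Two reagent solutions held at 4 deg C in the dark were dispensed, compounds pinned at 23 nl, and the mixture incubated 2 h at room temperature. Read-out: fluorescence polarization of VDR–SRC2-3 peptide binding.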
# Starred values were filed as active, the others as inactive; ? = inconclusive; & = joins results of further samples; [ ] = remark or other dose. On the % scale 0 is the no-effect control and ±100 the full control effect; potency means the concentration at half of the fitted maximal effect. These rows are one share of the data; rates above refer to the full screens.
item	molecule	VDR inh
1	CS(=O)(=O)N(CC(=O)O)c1ccc2c(c1)OCO2	-8%
2	O=C(COc1ccc2ccccc2c1Br)N1CCCC1	2%
3	O=c1c2ccccc2c2c(O)nc(-c3ccccc3)n2n1Cc1ccccc1	-17%
4	Cn1c(=O)c(-c2ccc(Cl)cc2)nc2cnc(Nc3ccccc3)nc21	12%
5	c1ccc2[nH]c(NCCN3CCOCC3)nc2c1	21%
6	Cc1ccccc1Oc1ccc(Oc2ccccc2C)nn1	8%
7	CC(C)COC(=O)/C(C#N)=C/c1c[nH]c2ccccc12	-4%
8	COc1ccc(CN2CCC(CO)(Cc3ccccc3C(F)(F)F)CC2)c(F)c1	-18%
9	CN(C(=O)CSc1nnc(N)s1)c1c(N)n(Cc2ccccc2)c(=O)[nH]c1=O	-4%
10	CN(C(=O)CS(=O)(=O)c1cn(CC(=O)N2CCOCC2)c2ccccc12)c1ccccc1	5%
11	C/C(=N/NC(N)=S)c1ccccc1[N+](=O)[O-]	-5%
12	Nc1[nH]c(=O)nc2c1ncn2C1OC(CO)C(O)C1O (stereo not given)	-4%
13	CC1CCN(c2nn3c(=O)c(C(=O)NCCc4ccc(Cl)cc4)cnc3s2)CC1	4%
14	O=C(OCCOCCOC(=O)Oc1ccccc1)Oc1ccccc1	-21%
15	Cn1cc(SCC(=O)NCCc2ccccc2)c2ccccc21	2%
16	CCOc1ccc(-n2nc3c(Cl)nnc(C)c3c2C)cc1	-3%
17	O=C(CCCOc1ccc(Br)cc1)Nc1nnc(C2CC2)s1	-9%
18	CCOCc1c(C(=O)Nc2ccccc2N2CCN(C)CC2)oc2ccccc12	-15%
19	CCOC(=O)C(C)N1C(=O)S/C(=C/c2ccc3c(c2)n(C)c(=O)n3C)C1=O (stereo not given)	-22%
20	FC(F)(F)c1ccccc1NC(=S)Nc1ccccc1	-7%
21	c1cncc(-c2nc(-c3ccc4c(c3)OCO4)cs2)c1	-6%
22	CN(C)S(=O)(=O)N1CCC(n2nccc2NC(=O)CCc2ccccc2)CC1	24%
23	COc1ccc(NC(=O)c2oc3ccccc3c2NC(=O)COc2ccc(F)cc2)c(OC)c1	5%
24	CCOC(=O)c1cc(-c2ccc(C)cc2)n(CCC(=O)NCCCOC)c1C	6%
25	COC(=O)c1c(NC(=O)CSc2nc3nc(C)cc(C)n3n2)sc(C)c1C	3%
26	COc1ccccc1C(=O)NCCC(=O)NC1=NCCS1	-3%
27	Cc1ccc(CNc2ccc(N3C(=O)CCCC3=O)cc2[N+](=O)[O-])cc1	-4%
28	CCOc1ccc(CNC(=O)C2CCCN(S(=O)(=O)c3ccc4c(c3)CCCC(=O)N4)C2)cc1 (stereo not given)	22%
29	CCOC(=O)C1=C(C)N(c2ccccc2)C(=O)C1	-4%
30	CC(=O)c1ccc(NC(=O)CCCN2C(=O)C(c3ccccc3)Oc3cccnc32)cc1 (stereo not given)	-19%
31	O=C(c1cc(-c2ccccc2)on1)N1CCN(Cc2ccc3c(c2)OCO3)CC1	2%
32	COC(=O)/C=C1\N/C(=N\c2nc(C)cc(C)n2)N(c2ccccc2)C1=O	-1%
33	Nc1nc(CN2CCN(c3cccc(Cl)c3)CC2)nc(N2CCCc3ccccc32)n1	-22%
34	N#Cc1cc(-c2ccccc2)nc(NN)n1	-7%
35	COc1ccc(C)cc1S(=O)(=O)NCC(c1cccnc1)N1CCc2ccccc2C1 (stereo not given)	-7%
36	CCn1c(SCC(=O)OC)nnc1C1CCCCC1	-8%
37	COc1ccc(Cl)cc1NC(=O)C(C)n1c(=O)cc(C(F)(F)F)c2c(C)nn(C)c21 (stereo not given)	14%
38	CCN(CC(=O)Nc1ccc(NC(C)=O)cc1)C(=O)/C=C/c1ccc2c(c1)OCO2	15%
39	CN(C)/C=C(\C#N)C(=O)c1cccnc1Oc1ccc(F)cc1F	6%
40	Cc1ccc(C)c(-n2c(CNC(=O)c3ccco3)nnc2SCC(=O)Nc2nccs2)c1	-2%
41	COc1ccc(-c2cc3nc(C)cc(C)n3n2)cc1	14%
42	COc1ccccc1N/N=C(\C#N)C(=N)N1CCOCC1	16%
43	CC(NC(=O)c1ccc2c(c1)OCO2)C(c1cccs1)N1CCN(c2ccccc2)CC1 (stereo not given)	8%
44	COc1cccc(OCCOc2c(OC)cccc2OC)c1	-11%
45	O=S(=O)(c1ccc(Cl)nc1)N1CCOCC1	1%
46	CC(C)(C)c1ccc(C(=O)Nc2sc3c(c2C(=O)O)CCC3)cc1	-18%
47	CNS(=O)(=O)c1ccc(NC(=O)c2ccoc2C)cc1	3%
48	COc1ccc(NC(=O)CN2CCN(S(=O)(=O)c3ccc(Br)cc3)CC2)c(OC)c1	-3%

# Some of these compounds in order of molar mass, falling:
item	molecule	VDR inh
43	CC(NC(=O)c1ccc2c(c1)OCO2)C(c1cccs1)N1CCN(c2ccccc2)CC1 (stereo not given)	8%
39	CN(C)/C=C(\C#N)C(=O)c1cccnc1Oc1ccc(F)cc1F	6%
41	COc1ccc(-c2cc3nc(C)cc(C)n3n2)cc1	14%

# Remaining list, next part.
item	molecule	VDR inh
49	Cc1ccc(C)c(NC(=S)NNC(=O)c2cc3c(s2)CCC(C)C3)c1 (stereo not given)	7%
50	COCCN1C(=O)N(c2cccc(C)c2)C(=O)C1CC(=O)Nc1ccc(OC)cc1 (stereo not given)	24%
51	O=C(O)CNC(=O)CC1S/C(=N/N=C2/NC(=O)CS2)NC1=O (stereo not given)	-5%
52	O=C(N/N=C/c1cc(Cl)ccc1O)C(=O)Nc1ccccc1OC(F)(F)C(F)F	-4%
53	COc1ccccc1C(=O)C1CCCN(C(=O)c2ccco2)C1 (stereo not given)	-15%
54	CCOc1cc(-c2nc(-c3ccc(-c4ccccc4)nc3OCC)no2)cc(OCC)c1OCC	18%
55	COP(=O)(CC(=O)c1ccccc1)CC(=O)c1ccccc1	7%
56	O=c1ccc2cc(S(=O)(=O)N3CCCC3)ccc2[nH]1	15%
57	CCOC(=O)C1(Cc2ccc(Cl)cc2)CCN(C2CCC2)CC1	-4%
58	CCCCCc1cc(=O)oc2c(C(CCN3CCCC3)c3cc(OC)c(OC)c(OC)c3)c(OC)cc(OC)c12 (stereo not given)	-1%
59	O=C(CN1CCc2ccccc21)NN1CC(=O)N(c2ccc(Cl)cc2)CC1=O	22%
60	O=C(COC(=O)C1CC2C=CC1C2)NCCc1ccccc1 (stereo not given)	-3%
61	CCOC(=O)C1=C(C)N(C)C(=S)NC1c1ccccc1 (stereo not given)	-4%
62	CCOC(=O)N1CCc2c(sc3c2c(=O)n(CCc2ccccc2)c(=O)n3CC(=O)Nc2ccccc2C)C1	-1%
63	COc1ccc(-c2cc(C(=O)Nc3ccccc3F)on2)cc1	-3%
64	Cc1cc(=O)[nH]c(N/N=C/c2ccc(OC(=O)c3ccco3)cc2)n1	-6%
65	COc1ccccc1CNC(=O)C1=CCN(S(=O)(=O)c2ccc(C)cc2)CC1	-9%
66	CCOC(=O)c1sc(=NC(=O)c2ccc(Br)cc2)n(C)c1C	-17%
67	CCCn1c(N)c(NCCN2CCOCC2)c(=O)[nH]c1=O	-4%
68	O=C(NCC1(N2CCOCC2)CCCCC1)c1ccc(Cl)c(S(=O)(=O)NCc2ccco2)c1	1%
69	CCOC(=O)CSc1nnc(CNC(=O)c2ccc([N+](=O)[O-])cc2)n1C	4%
70	CCOC(=O)c1ccc(NC(=O)Nc2c[nH]c(=O)[nH]c2=O)cc1	3%
71	COC(=O)[C@@H](NC(=O)Nc1ccc(S(N)(=O)=O)cc1)C(C)C	1%
72	Cc1ccccc1-c1nc(CN2CCC(C(=O)NCc3ccccc3Cl)CC2)c(C)o1	-4%
73	CC1CCc2c(C(=O)NCc3cccnc3)csc2C1 (stereo not given)	3%
74	OC[C@@H]1O[C@@H](n2cnc3c(N[C@H]4CCC[C@@H]4O)ncnc32)[C@H](O)[C@H]1O	4%
75	CCCCn1c(N)c(N(CC)C(=O)c2cc(S(=O)(=O)N3CCN(CC)CC3)ccc2Cl)c(=O)[nH]c1=O	-3%
76	O=C(Nc1cccnc1Cl)c1cc(-c2ccccc2O)on1	-11%
77	Brc1ccc(-c2csc(/N=C/N3CCOCC3)n2)cc1	4%
78	O=C(N[C@@H](Cc1ccccc1)C(=O)OCc1ccccc1)c1nc[nH]c1C(=O)NC1CCNCC1	-18%
79	CCOCCCNC(=S)N1CCCN(c2nc3cc(C)cc(C)c3cc2C#N)CC1	-4%
80	CC1(c2nnc(-c3cccc(Cl)c3)o2)CC(c2ccc(Br)cc2)=NO1 (stereo not given)	-18%
81	O=C(CCS(=O)(=O)c1nc(-c2cccs2)cc(C(F)(F)F)n1)Nc1cc(Br)ccc1O	11µM*
82	COc1ccc(-c2cc(C(=O)NC(C)c3ccccc3)c3cc(C(C)C)ccc3n2)cc1 (stereo not given)	-6%
83	Cc1ccc(CSc2nnc(CS(=O)Cc3ccc(Cl)cc3Cl)n2C)cc1 (stereo not given)	4%
84	CCCCc1ccc(NC(=O)CN2C(=O)C3CCCCC3C2=O)cc1 (stereo not given)	-3%
85	C=CCNC(=S)NNC(=O)C(CCC(C)C)CC(C)(C)O (stereo not given)	19%
86	Cc1cc(-n2c(C)cc(C(=O)CN3C(=O)NC4(CCCCC4)C3=O)c2C)no1	5%
87	Cc1c(CCNC(=O)c2ccc(Br)o2)sc2nc(-c3ccc(F)cc3)nn12	11%
88	Cc1ccc(CNc2oc(C)nc2C#N)cc1	-5%
89	CCc1nc2ccccc2c(=O)n1NCCc1ccccc1	5%
90	CCOC(=O)c1cccc(NC(=O)NC(C)c2c(-n3cccc3)sc3c2CCN(C)C3)c1 (stereo not given)	10%
91	COc1ccc2oc(C(=O)NCCC(C)C)c(C)c2c1	-24%
92	CC(C)CC1(C(=O)NCc2cc(F)cc(C(F)(F)F)c2)C=CCN1C(=O)c1ccccc1 (stereo not given)	-2%
93	Cc1cccnc1NC(=O)c1ccc(OCc2c(C)noc2C)cc1	-1%
94	Cc1nc(CS(=O)(=O)c2ccc(Cl)cc2)sc1C(=O)O	7%
95	CC(C)(C)N(CC(=O)NC1CCCCC1)C(=O)CS(=O)CC(=O)Nc1ccc(F)cc1 (stereo not given)	-4%
96	COc1ccc(NS(=O)(=O)c2cc(NC(=O)/C=C/c3cc(OC)ccc3OC)ccc2N2CCCCC2)cc1	6%

# 3 entries from above, set out differently.
nr	VDR inh	molecule
89	5%	CCc1nc2ccccc2c(=O)n1NCCc1ccccc1
90	10%	CCOC(=O)c1cccc(NC(=O)NC(C)c2c(-n3cccc3)sc3c2CCN(C)C3)c1 (stereo not given)
91	-24%	COc1ccc2oc(C(=O)NCCC(C)C)c(C)c2c1

# (more compounds)
item	molecule	VDR inh
97	CCCCC1=CC2=C(c3ccco3)C(=O)C(C)(OC(=O)c3ccc(OC)cc3)C(=O)C2=CN1Cc1ccco1 (stereo not given)	?
98	C#CCOCCOCCOCCNc1nc(N2CCN(C(=O)CCCCCCCCCCNC(=O)[C@H](CCCCN)n3cc(C[C@@H](C)CC)nn3)CC2)nc(N2CCN(C(=O)CCCCCCCCCCNC(=O)[C@H](CCCN=C(N)N)n3cc(C[C@@H](C)CC)nn3)CC2)n1	76%[activator]
99	O=C(Nc1ccc(Cl)cc1)N(Cc1cccnc1)Cc1ccco1	-15%
100	Cc1nnc(C)n1/N=C/c1cc2ccccc2nc1Cl	-3%
101	CCc1ccc(CNC(=O)c2ccc3c(Cl)c4c(nc3c2)CCCC4)cc1	-4%
102	O=C(CCc1ccccc1)NCC(=O)N/N=C/c1ccc2c(c1)OCO2	-21%
103	CN(C)S(=O)(=O)c1cccc(NC(=O)Cc2ccsc2)c1	20%
104	O=C(CSc1nc(N2CCOCC2)nc(N2CCOCC2)n1)Nc1ccc(Cl)cc1Cl	-24%
105	Cc1ccc(C(=O)Nc2nc(C(C)(C)C)cs2)s1	-3%
106	Cc1ccc([N+](=O)[O-])c(C(=O)N/N=C/c2cccnc2)c1	15%
107	O=C(O)Cc1ccc(Nc2cnn(C34CC5CC(CC(CC(=O)O)(C5)C3)C4)c(=O)c2Cl)cc1	3%
108	CN(C)C(=O)c1cc(F)ccc1Sc1cc(Cl)ccc1Cl	-12%
109	CC(C)c1cc(C(=O)NCCc2ccccc2)no1	-2%
110	Cc1ccc(C(=O)NNC(=O)Cc2nc3nc(C)cc(C)n3n2)cc1	-5%
111	O=C1CC(N2CCN(S(=O)(=O)c3ccccc3)CC2)C(=O)N1c1ccccc1 (stereo not given)	-7%
112	CC1c2cccn2CCN1S(=O)(=O)c1ccccc1 (stereo not given)	-3%
113	Cc1oc(-c2cc(F)ccc2F)nc1CN1CCC(C(=O)N2CCOCC2)CC1	-1%
114	COC(=O)[C@H]1C2CCC(C(=O)OC)(CC2)[C@H]1C(=O)OC	-20%
115	CCN(CC(=O)NC1CC1)S(=O)(=O)c1ccccc1	-8%
116	COc1cc2c(cc1OC)CN(C(=O)c1ccc(-c3ccccc3)cc1)CC2	16%
117	COCCCNCCCOc1ccc(Cl)cc1Br	31%
118	CCOc1ccc(NC(=O)COc2ccc(S(=O)(=O)NC3CCCCC3)cc2)cc1	-9%
119	CCOC(=O)C1(Cc2ccccc2C)CCCN(Cc2cn(C)nc2C)C1 (stereo not given)	13%
120	COc1ccc(C)cc1NC(=O)CN1C(=O)c2ccccc2S1(=O)=O	-8%
121	O=C(NCc1cccc(F)c1)c1ccc2nc(N3CCOCC3)sc2c1	-3%
122	COc1ccc(/C=C2\C(=O)NC(=O)c3ccccc32)cc1OC	?
123	O=[N+]([O-])c1ccccc1S(=O)(=O)Nc1cccc2cccnc12	-19%&1%
124	Cn1ncc(Cl)c1C(=O)N1CCN(c2ccc(Cl)c(Cl)c2)CC1	-2%
125	CCOc1ccc(CCNC(=O)c2cn(-c3ccc(OC)cc3)c(=O)c3ccccc23)cc1OCC	3%
